# Vaccinia stage = Vaccinia orthopox stage-specific inhibition | activity change (mCherry), % (no concentration beside the values) | Vaccinia-infected cells, mCherry/Venus stage reporter fluorescence; stronger effect = lower value; some inactives read as strong as hits | 0.01% of 89,000 active;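 active = mCherry past -33% and 40 or more points under the early reporter, replicates agreeing; inconclusive = past -33% without that gap or agreement; tested in A549 cells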;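 note: scaled between vehicle wells and reference inhibitor wells; 23 nL library stock went into each well; one replicate is shown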
# Vaccinia stage Venus = recorded beside Vaccinia stage, whose call it bears; activity change (Venus), %; measured here: Venus reporter, other viral stage;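 negative = less Venus signal; first of two replicates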
# Starred values were filed as active, the others as inactive; u = inconclusive; x = not tested or not shown.
canonical_smiles,Vaccinia stage,Vaccinia stage Venus
CC(C)NC(=O)N[C@@H]1C=C[C@H](CC(=O)NCCCN(C)C)O[C@@H]1CO,10,12
C[C@@H]1CN([C@H](C)CO)S(=O)(=O)c2ccc(C#CC3(O)CCCC3)cc2O[C@@H]1CN(C)CC1CC1,10,-2
O=C(C[C@H]1C[C@@H]2c3cc(NC(=O)C4CCOCC4)ccc3O[C@@H]2[C@@H](CO)O1)NCc1ccc2c(c1)OCO2,-2,4
C[C@@H]1CN([C@H](C)CO)S(=O)(=O)c2ccc(-c3ccncc3)cc2O[C@@H]1CN(C)Cc1ccccn1,-14,-13
C[C@@H]1CN([C@H](C)CO)C(=O)c2cc(NC(=O)Cn3cnnn3)ccc2O[C@H]1CN(C)C,23,5
CCCNC(=O)N1C[C@H]2[C@@H](c3ccccc31)[C@@H](CO)N2C(=O)Cc1ccccn1,7,4
C[C@@H]1CN([C@H](C)CO)C(=O)c2cc(C#CCc3ccccc3)cnc2O[C@H]1CN(C)CC1CCOCC1,-19,1
Cc1noc(C)c1NC(=O)Nc1ccc2c(c1)C(=O)N([C@H](C)CO)C[C@@H](C)[C@@H](CN(C)Cc1ccc(C(F)(F)F)cc1)O2,9,8
C[C@@H]1CN([C@@H](C)CO)C(=O)c2cc(NS(=O)(=O)c3ccc(F)cc3)ccc2O[C@@H](C)CCCCO[C@@H]1CN(C)C(=O)CCC(F)(F)F,u,x
C[C@H](CO)N1C[C@H](C)[C@H](CN(C)C(=O)Nc2cccc3ccccc23)Oc2ccc(NS(=O)(=O)c3cn(C)cn3)cc2C1=O,4,-1
CCCCc1cn(C[C@H](Cc2ccccc2)NC(=O)N[C@H](CO)CCc2oc(C(C)=O)c(C(=O)OC)c2C(=O)OC)nn1,9,0
C[C@@H]1CN([C@H](C)CO)C(=O)c2cc(-c3cccc(F)c3)cnc2O[C@@H]1CN(C)Cc1ccccc1,1,-4
CNC[C@H]1OCCCC[C@H](C)Oc2ccc(NC(=O)NC(C)C)cc2C(=O)N([C@H](C)CO)C[C@@H]1C,26,8
CN(C)CC(=O)N[C@@H]1CC[C@H](CCNC(=O)C2CCCCC2)O[C@H]1CO,-3,-5
CCC(=O)Nc1ccc2c(c1)C(=O)N(C)[C@H]1CC[C@@H](CC(=O)NCc3ccccc3Cl)O[C@H]1CO2,-7,-5
C[C@@H]1CN([C@@H](C)CO)C(=O)c2cc(NS(=O)(=O)c3ccc(F)cc3)ccc2O[C@@H](C)CCCCO[C@H]1CN(C)Cc1ccc(C(F)(F)F)cc1,-23,-16
CCCN(C)C[C@H]1OCc2cnnn2CCCC(=O)N([C@@H](C)CO)C[C@H]1C,2,7
O=C(C[C@@H]1C[C@H]2c3cc(NC(=O)C4CCC4)ccc3O[C@H]2[C@@H](CO)O1)NCCc1ccccc1,2,6
COCCNC(=O)C[C@@H]1CC[C@@H]2[C@H](COC[C@@H](O)CN2C(=O)c2cc(Cl)cc(Cl)c2)O1,-2,-2
CCC(=O)Nc1ccc2c(c1)C(=O)N(C)[C@@H]1CC[C@@H](CC(=O)N[C@H](C)c3ccccc3)O[C@H]1CO2,7,9

# 7 entries already listed, arranged by SMILES length, highest first.
canonical_smiles,Vaccinia stage,Vaccinia stage Venus
C[C@@H]1CN([C@@H](C)CO)C(=O)c2cc(NS(=O)(=O)c3ccc(F)cc3)ccc2O[C@@H](C)CCCCO[C@H]1CN(C)Cc1ccc(C(F)(F)F)cc1,-23,-16
C[C@H](CO)N1C[C@H](C)[C@H](CN(C)C(=O)Nc2cccc3ccccc23)Oc2ccc(NS(=O)(=O)c3cn(C)cn3)cc2C1=O,4,-1
C[C@@H]1CN([C@H](C)CO)S(=O)(=O)c2ccc(C#CC3(O)CCCC3)cc2O[C@@H]1CN(C)CC1CC1,10,-2
C[C@@H]1CN([C@H](C)CO)S(=O)(=O)c2ccc(-c3ccncc3)cc2O[C@@H]1CN(C)Cc1ccccn1,-14,-13
C[C@@H]1CN([C@H](C)CO)C(=O)c2cc(C#CCc3ccccc3)cnc2O[C@H]1CN(C)CC1CCOCC1,-19,1
C[C@@H]1CN([C@H](C)CO)C(=O)c2cc(NC(=O)Cn3cnnn3)ccc2O[C@H]1CN(C)C,23,5
CN(C)CC(=O)N[C@@H]1CC[C@H](CCNC(=O)C2CCCCC2)O[C@H]1CO,-3,-5

# Further records.
canonical_smiles,Vaccinia stage,Vaccinia stage Venus
CO[C@@H]1CN(C)C(=O)c2cc(NC(C)=O)ccc2OC[C@@H](C)N(C(=O)c2cccnc2)C[C@H]1C,7,5
Cc1ccc(S(=O)(=O)NCC[C@H]2CC[C@H](NC(=O)CCN3CCCCC3)[C@@H](CO)O2)cc1,9,6
C[C@H]1CN([C@@H](C)CO)C(=O)c2cc(NC(=O)NC3CCCCC3)ccc2O[C@@H]1CN(C)CC1CCCCC1,-11,-14
C[C@H](CO)N1C[C@H](C)[C@H](CN(C)Cc2ccncc2)OCCCC[C@H](C)Oc2ccc(NC(=O)Nc3ccc4c(c3)OCO4)cc2C1=O,-9,-9
COCC#Cc1ccc([C@@H]2[C@@H](CO)N3C(=O)CN(C(=O)C4CC4)C[C@@H]23)cc1,11,11
C[C@H]1CN([C@@H](C)CO)C(=O)c2ccccc2-c2ccccc2CO[C@H]1CN(C)S(=O)(=O)c1ccc(C(F)(F)F)cc1,u,x
O=C(CN1CCOCC1)N1CC2(C1)[C@H](c1ccccc1)[C@@H](CO)N2Cc1cccc(F)c1,-11,-12
COCCOC(=O)N1C(=O)[C@@]2(c3cc(C#Cc4ccc(OC)cc4)ccc31)[C@H](C(=O)N1CCN(c3ncccn3)CC1)[C@H]1C(=O)O[C@H](c3ccccc3)[C@H](c3ccccc3)N1[C@@H]2c1ccc(OCCO)cc1,1,-1
C[C@@H]1CN([C@H](C)CO)C(=O)CCCn2cc(nn2)CO[C@@H]1CN(C)S(=O)(=O)c1ccc(-n2cccn2)cc1,9,16
CC(C)NC(=O)Nc1cccc2c1O[C@@H](CN(C)CC1CC1)[C@H](C)CN([C@@H](C)CO)C2=O,3,-2
CC(C)NC(=O)N(C)C[C@@H]1Oc2cc(-c3ccncc3)ccc2S(=O)(=O)N([C@@H](C)CO)C[C@H]1C,28,15
COC(=O)[C@@H](NC(=O)CN=[N+]=[N-])c1ccccc1,16,2
CS(=O)(=O)N1[C@H](C#N)[C@H](c2ccc(C#CC3CCCCC3)cc2)[C@H]1CO,-21,-22
C[C@H]1CN([C@@H](C)CO)C(=O)c2cc(NC(=O)CCC(F)(F)F)ccc2O[C@H]1CN(C)Cc1ccncc1,13,4
COc1ccc2c3c([nH]c2c1)[C@@H](CO)N(C(=O)NC(C)C)CC31CCN(C(=O)c2cccnc2)CC1,15,0
C[C@@H]1CN([C@H](C)CO)C(=O)c2ccccc2-c2ccccc2CO[C@@H]1CN(C)S(=O)(=O)c1cccs1,3,-11
CC(=O)NC[C@@H]1[C@H](c2ccc(-c3ccccc3F)cc2)[C@H](CO)N1C(C)=O,15,8
COc1ccc(C#Cc2ccc3c(c2)[C@]2(C(=O)N3)[C@H](C(=O)Nc3nc4ccccc4s3)[C@H]3C(=O)O[C@H](c4ccccc4)[C@H](c4ccccc4)N3[C@@H]2c2ccccc2OCCO)cc1,2,4
O=C(C[C@@H]1CC[C@H]2[C@@H](COC[C@H](O)CN2Cc2ccc3c(c2)OCO3)O1)N1CCCCC1,1,5
O=C(C[C@@H]1CC[C@H](NS(=O)(=O)c2ccccc2)[C@@H](CO)O1)NCc1ccncn1,6,3
COc1ccccc1C#Cc1ccc2c(c1)O[C@H](CN(C)Cc1ccccc1)[C@@H](C)CN([C@@H](C)CO)S2(=O)=O,u,x
Cc1noc(C)c1NC(=O)Nc1ccc2c(c1)CC(=O)N([C@H](C)CO)C[C@@H](C)[C@@H](CN(C)Cc1ccc(C(=O)Nc3ccccc3N)cc1)O2,-12,-17
C[C@@H]1CN([C@@H](C)CO)C(=O)c2cc(-c3ccncc3)cnc2O[C@@H]1CN(C)S(=O)(=O)c1ccc(F)cc1,-2,-3
COc1cccc(C#Cc2ccc3c(c2)[C@H]2[C@H](CCN2S(=O)(=O)c2ccccc2)[C@H](CO)N3)c1,18,6
C[C@H]1CN([C@@H](C)CO)S(=O)(=O)c2ccc(C#Cc3ccccc3)cc2O[C@@H]1CN(C)S(=O)(=O)c1ccccc1F,-13,-12
O=C(C[C@H]1CC[C@H]2[C@@H](COC[C@@H](O)CN2Cc2ccc(Oc3ccccc3)cc2)O1)Nc1nccs1,u,x
C[C@@H]1CCCCO[C@H](CN(C)Cc2ccc(C(=O)O)cc2)[C@@H](C)CN([C@@H](C)CO)C(=O)c2cc(NC(=O)Nc3ccc4c(c3)OCO4)ccc2O1,1,2
C[C@@H]1CN([C@H](C)CO)C(=O)c2cc(NS(=O)(=O)c3cccs3)ccc2O[C@H]1CN(C)Cc1ccc2c(c1)OCO2,20,19
C[C@H]1CN([C@@H](C)CO)C(=O)c2cc(NS(=O)(=O)c3cn(C)cn3)ccc2O[C@@H]1CN(C)CC1CC1,0,11
O=C(C[C@H]1C[C@H]2c3cc(NC(=O)NC4CCCC4)ccc3O[C@H]2[C@@H](CO)O1)NCc1cccnc1,8,-2
C[C@H]1CN([C@@H](C)CO)C(=O)c2cccc(NS(=O)(=O)c3ccc(F)cc3)c2O[C@@H]1CN(C)CC1CCCCC1,14,1
COc1ccc2c3c(n(C)c2c1)[C@H](CO)N(C(C)=O)CC31CN(C(=O)C2CCOCC2)C1,20,5
COc1ccc(S(=O)(=O)Nc2ccc3c(c2)C(=O)N([C@@H](C)CO)C[C@H](C)[C@H](CN(C)Cc2ccc(C(=O)Nc4ccccc4N)cc2)O3)cc1,6,1
CN1c2ccc(C3=CCCCC3)cc2[C@H]2[C@H](CCN2S(=O)(=O)c2ccccc2F)[C@@H]1CO,13,4
C[C@H](CO)N1C[C@H](C)[C@H](CN(C)Cc2ccncc2)Oc2ncccc2C1=O,8,4
Cc1noc(C)c1S(=O)(=O)Nc1ccc2c(c1)C(=O)N([C@@H](C)CO)C[C@@H](C)[C@H](CN(C)Cc1ccccc1)OCCCC[C@@H](C)O2,-13,-13
C[C@@H]1CN([C@@H](C)CO)C(=O)c2cc(NC(=O)CCCN(C)C)ccc2O[C@H]1CN(C)C,12,-5
COc1ccc(CN(C)C[C@H]2OCCCC[C@@H](C)Oc3ccc(NS(C)(=O)=O)cc3C(=O)N([C@@H](C)CO)C[C@@H]2C)cc1,0,3
CNC[C@H]1Oc2ccc(NS(=O)(=O)c3ccc(F)cc3)cc2CC(=O)N([C@@H](C)CO)C[C@@H]1C,-2,-4
CO[C@@H](CN(C)C(=O)c1ccc2c(c1)OCO2)[C@@H](C)CN([C@@H](C)CO)S(=O)(=O)c1ccccc1,3,3
O=C(c1ccccc1)N1CC[C@@H]2[C@@H](CO)Nc3ccc(C#Cc4cccnc4)cc3[C@@H]21,2,7
CO[C@@H]1CN(C)C(=O)c2ccc(NC(=O)NC(C)C)cc2OC[C@H](C)N(Cc2ccc(-c3ccccn3)cc2)C[C@H]1C,-15,-16
C[C@H]1CN([C@@H](C)CO)C(=O)Cc2cc(NC(=O)c3ccncc3)ccc2O[C@@H]1CN(C)Cc1ccccc1,-1,2
C[C@@H]1CN([C@@H](C)CO)C(=O)c2cccc(NC(=O)Nc3ccc(C(F)(F)F)cc3)c2O[C@H]1CN(C)C(=O)Nc1cccc2ccccc12,u,x
C[C@H](CO)N1C[C@H](C)[C@@H](CN(C)C(=O)Cc2ccccn2)Oc2ncc(C#CC3CCCCC3)cc2C1=O,-22,-17
C[C@@H]1CCCCO[C@@H](CN(C)C(=O)Nc2cccc3ccccc23)[C@H](C)CN([C@H](C)CO)C(=O)c2cc(NS(=O)(=O)c3ccc(F)cc3)ccc2O1,12,5
C[C@H](CO)N1C[C@H](C)[C@H](CN(C)Cc2ccncc2)Oc2ccc(NC(=O)Nc3ccc(F)cc3)cc2CC1=O,-4,3
CCCN1C[C@H](C)[C@H](OC)CN(C)C(=O)c2cc(NS(=O)(=O)CC)ccc2OC[C@@H]1C,-1,-5
CC=Cc1ccc2n(c1=O)C[C@H]1[C@H](CO)[C@@H](C(=O)NCCc3ccncc3)[C@@H]2N1Cc1ccncc1 (mixture of isomers),7,10
C[C@@H]1CN([C@H](C)CO)C(=O)c2cccc(NC(=O)c3ccc(-c4nccs4)cc3)c2O[C@@H]1CN(C)C(=O)Nc1ccc2c(c1)OCO2,14,9
O=C(NC1CCCC1)N[C@H]1C=C[C@@H](CC(=O)N2CCOCC2)O[C@@H]1CO,-11,5
C[C@@H](NC(=O)[C@H]1[C@H](CO)[C@H]2Cn3c(cccc3=O)[C@H]2N1CC1CCCC1)c1ccccc1,3,2
O=C(N[C@@H]1CC[C@H](CCNS(=O)(=O)c2ccccc2)O[C@H]1CO)c1cccnc1,-6,11
COCC#Cc1ccc2c(c1)O[C@@H](CN(C)C(=O)C1CCCCC1)[C@@H](C)CN([C@H](C)CO)S2(=O)=O,-1,-2
O=C(C[C@@H]1CC[C@H]2[C@@H](COC[C@H](O)CN2Cc2ccccc2)O1)N[C@H]1CCN(Cc2ccccc2)C1,-9,6
C[C@H]1CN([C@@H](C)CO)C(=O)c2cc(-c3ccncc3)cnc2O[C@H]1CN(C)Cc1ccc(F)cc1,30,12
C[C@H](CO)N1C[C@H](C)[C@@H](CN(C)C(=O)Nc2ccc3c(c2)OCO3)OCCCC[C@H](C)Oc2ccc(NC(=O)Nc3ccc4c(c3)OCO4)cc2C1=O,17,7

# Not all compounds are listed; count on the stated rates, not on these rows.
